HIV TAR-Tat = HIV-1 TAR-Tat binding disruption; HIV-1 TAR RNA, Tat peptide displacement FRET; stronger effect = higher value; z-score (test concentration not listed); 0.6% of 100,000 active;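 further: score is relative to mean and SD of negative controls; some compounds called inactive have numbers as strong as hits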
CDC25B-CDK2 inh = human CDC25B-CDK2/CyclinA binding inhibition; P30305+P24941; HTRF CDC25B-CDK2/CyclinA binding, anti-His/anti-Flag; stronger effect = higher value; z-score (concentration not given with the values); 0.72% of 94,000 active; AID 1259370;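 further: score is relative to mean and SD of negative controls; strong numbers were not always called active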
Starred values were filed as active, the others as inactive; . = no result given.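 How the source made its calls: active means z-score from 3 up in half or more of its runs; inactive means the rest.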

SMILES | HIV TAR-Tat | CDC25B-CDK2 inh
CC(=O)Oc1ccc(C2OC(c3cccc(Br)c3)=NN2C(C)=O)cc1 (stereo unspecified) | 1.8 | .
CN(C)CC(O)Cn1c2ccccc2c2ccccc21 (stereo unspecified) | . | 1.5
Cc1c(C(=O)N2CCC(c3nc4ccccc4o3)CC2)oc2ccc(Br)cc12 | 0.91 | 1.9
CCN(CC)S(=O)(=O)c1c(C)nn(S(=O)(=O)c2ccccc2)c1C | 1.3 | .
CC(C)Cn1c(=O)c(C(=O)Nc2ccc(O)cc2)c(O)c2ccccc21 | . | -2.8
Cc1nc(-c2ccc(C)c(S(=O)(=O)NCc3ccccc3)c2)cs1 | 1 | .
CC(C)N[C@H]1CS(=O)(=O)C[C@@H]1S(=O)(=O)c1ccc(F)cc1 | -0.51 | -1.4
CN1C(=O)C(O)(CC(=O)c2ccc(-n3cccc3)cc2)c2ccccc21 (stereo unspecified) | -0.73 | -0.4
COc1ccc(C(CC(=O)O)c2ccc3c(c2)OCO3)cc1 (stereo unspecified) | . | -0.76
CC1CCCCN1C(=O)C1CC(c2ccc(F)cc2)=NO1 (stereo unspecified) | 1.3 | -0.63
Clc1cccc(Cn2ncc3ccccc32)c1 | -0.2 | 2
Cc1nnc2c3ccccc3nc(Nc3ccccc3Cl)n12 | -0.4 | .
C=CCN1C(=O)C(O)(c2c[nH]c3ccccc23)c2cc(Br)ccc21 (stereo unspecified) | -0.72 | -1.4
Cc1ccc(CSc2nnc(C)n3c2cc2oc(C)cc23)cc1 | 1.2 | .
CCCCn1c(SCc2cc(=O)n3cc(Cl)ccc3n2)nc2ccsc2c1=O | 1.9 | .
O=C(Nc1cccc(F)c1)Nc1nc2c(s1)CCCCC2 | 0.79 | .
Cn1ncc2c(NCc3ccccc3)nc(NC3CCCC3)nc21 | 1.5 | .
COc1ccc2c(c1)c(=O)c(C(=O)c1ccc(F)cc1)cn2Cc1ccc(F)cc1 | 0.24 | 1.7
COc1ccc(NC(=O)C(C)SC2=Nc3ccccc3C3=NC(C(C)C)C(=O)N23)cc1 (stereo unspecified) | 1.2 | .
NS(=O)(=O)c1cc(Br)ccc1I | . | -2.4
CCOC(=O)Cn1c(=O)c2ccsc2c2c(C#N)c(SC)sc21 | . | -1.4
Cc1ccc(Nc2c(-c3ccc(O)cc3)nc3sccn23)c(C)c1 | 0.78 | -1.6
COc1ccc(O)c(C2=NCCNC(C(F)(F)F)=C2)c1 | . | -3.1
Nc1nc2c(c(=O)[nH]1)C(c1ccc(O)cc1)CC(=O)N2 (stereo unspecified) | 0.32 | 0.68
Cc1ccc(CN2C(=O)c3oc4ccccc4c(=O)c3C2c2ccc(O)cc2)cc1 (stereo unspecified) | 2.3 | -1.7
Going on with the list.
SMILES | HIV TAR-Tat | CDC25B-CDK2 inh
CCOC(=O)c1cnc(Sc2ncccc2[N+](=O)[O-])nc1N | . | -1.2
CCOC(=O)c1cnc2n(c1=O)CCS2 | 3 | -1.2
Cc1ccccc1OCc1nc2c3cnn(-c4ccccc4Br)c3ncn2n1 | -0.4 | -2.3
Cc1ccc(N2C(=O)C3C4c5ccccc5C(C(=O)O)(c5ccccc54)C3C2=O)c(Br)c1 (stereo unspecified) | -0.24 | -1.6
CNC(=O)c1c(NC(=O)c2c(F)cccc2F)sc2c1CCC2 | 1.1 | .
O=C(CCCc1nc(-c2cccnc2)no1)Nc1nc(-c2ccccc2)cs1 | 0.46 | -0.25
Cc1cc2[nH]c(=O)[nH]c2cc1NS(=O)(=O)c1ccc(N2CCCC2=O)cc1 | 1.3 | .
Cc1ccc(C(=O)O)cc1-n1nnc2cccnc21 | 0.57 | 1
CCOC(=O)N1CCc2c(sc3c2C(=O)NC(c2ccccc2Cl)N3)C1 (stereo unspecified) | 2.3 | -0.32
O=C(CSc1ccc2nnc(-c3cccc(F)c3)n2n1)Nc1ccc2c(c1)OCCO2 | . | -12
Cc1ccc2nc(-c3ccncc3)c(Nc3ccc4c(c3)OCO4)n2c1 | . | -4.2
O=C(O)Cc1cc(=O)oc2c1ccc1ccccc12 | . | -1.3
CN(C)c1ccc(NC(=O)C2C3C=CC(C3)C2C(=O)O)cc1 (stereo unspecified) | -0.31 | -9.8
Cc1c(CCNS(=O)(=O)c2ccc3ccccc3c2)sc2nc(-c3ccc(F)cc3)nn12 | 0.11 | .
CN(CCCNC(=O)Cn1c(=O)c2cccn2c2ccccc21)C1CCCCC1 | -0.14 | .
Cc1ccccc1C1Nc2ccccc2NC2=C1C(=O)CC(c1ccccc1)C2 (stereo unspecified) | 0.17 | -1.2
CCOC(=O)c1oc2ccc(S(=O)(=O)Nc3ccc4c(c3)oc(=O)n4CC)cc2c1C | -0.05 | .
CCOCCCNC(=O)c1c(C)oc2ncnc(N3CCCCC3)c12 | 0.52 | .
NN1Nc2cc(S(N)(=O)=O)ccc2O1 | . | -1.6
CC(=O)N1c2ccc(S(=O)(=O)NCC3CCC(C(=O)NCC4CCCO4)CC3)cc2CC1C (stereo unspecified) | -0.21 | .
O=C(C(O)C(O)C(=O)N1CCCC1)N1CCCC1 (stereo unspecified) | . | -0.65
COCc1cc(CN2CCCCC2)c(O)c2ncccc12 | 0.57 | -1.6
Cc1ccc(CNc2nc3ccccc3c3nc(-c4ccncc4)nn23)cc1 | 0.06 | -1.6
Cc1c(N2CCN(S(=O)(=O)c3ccc(CC(C)C)cc3)CC2)c(=O)n(C)c(=O)n1C | 1.1 | .
O=C(CN1C(=O)c2cccnc2Oc2ccc(Cl)cc21)N1CCc2ccccc21 | 1.7 | .

As a working copy, some entries already given.
SMILES | HIV TAR-Tat | CDC25B-CDK2 inh
Cc1ccc(CNc2nc3ccccc3c3nc(-c4ccncc4)nn23)cc1 | 0.06 | -1.6
Cc1c(N2CCN(S(=O)(=O)c3ccc(CC(C)C)cc3)CC2)c(=O)n(C)c(=O)n1C | 1.1 | .
O=C(CN1C(=O)c2cccnc2Oc2ccc(Cl)cc21)N1CCc2ccccc21 | 1.7 | .

Single records (already shown).
`CCOC(=O)c1oc2ccc(S(=O)(=O)Nc3ccc4c(c3)oc(=O)n4CC)cc2c1C` is listed with HIV TAR-Tat: -0.05; CDC25B-CDK2 inh: .
`Cc1ccc(N2C(=O)C3C4c5ccccc5C(C(=O)O)(c5ccccc54)C3C2=O)c(Br)c1` (stereo unspecified) is listed with HIV TAR-Tat: -0.24; CDC25B-CDK2 inh: -1.6
`Cc1ccc(CNc2nc3ccccc3c3nc(-c4ccncc4)nn23)cc1` is listed with HIV TAR-Tat: 0.06; CDC25B-CDK2 inh: -1.6

Further entries:
SMILES | HIV TAR-Tat | CDC25B-CDK2 inh
COc1ccc2c(C)nc(N/C(N)=N/S(=O)(=O)c3ccc(C)cc3)nc2c1 | . | -6
O=c1c2cccnc2n(Cc2ccccc2Cl)c(=O)n1Cc1cccs1 | -0.01 | -1.3
O=c1[nH]n(CCO)c(=O)c2cccnc12 | . | -1.7
COc1ccc(-c2csc3ncnc(NCc4ccc(OC)cc4OC)c23)cc1 | 0.15 | .
Cc1ccc(-c2nc3c4c(C)c(C)n(Cc5ccncc5)c4ncn3n2)cc1 | -0.3 | -0.98
Cc1nn(C(C)C(=O)N2CCC(C)CC2)c(=O)c2cc3sccc3n12 (stereo unspecified) | 0.42 | -1.4
Cc1ccc(Nc2c(-c3ccc(Cl)cc3)c(=O)c2=O)cc1N(C)C | -0.63 | .
Cn1ccnc1SCC(O)c1ccccc1 (stereo unspecified) | 0.94 | -1.3
CN(c1ccccc1)S(=O)(=O)C1CCS(=O)(=O)C1 (stereo unspecified) | 2.5 | -2.1
CC1CCN(C(=O)CCCc2nnc3c(=O)n(-c4ccc(Cl)cc4)ccn23)CC1 | 0.2 | .
Cn1c(C2=C(O)CN(c3ccccc3Cl)C2=N)nc2ccccc21 | 1.5 | -1.9
O=C(Nc1nc2ccccc2n1CCN1CCOCC1)C1CCCCC1 | 0.22 | 2.3
O/N=C/c1cn(-c2ccccc2)nc1-c1ccccc1 | . | 0.47
O=C(CCN1C(=O)c2ccccc2C1=O)Nc1nccs1 | . | -0.54
CN1CCN(CCNC(=O)Nc2ccc(F)c(Cl)c2)CC1 | -0.48 | -1.1
CSCCC1(C(=O)O)NC(c2ccc(O)cc2O)C2C(=O)N(Cc3ccccc3)C(=O)C21 (stereo unspecified) | . | 0.11
O=[N+]([O-])c1ccc(N2CCCCCC2)c([N+](=O)[O-])c1 | . | -2.1
O=C1c2[nH]nc(-c3ccccc3O)c2C(c2ccccc2F)N1Cc1ccco1 (stereo unspecified) | -0.57 | -0.57
Cc1cc(C)c2c(N)c(C(=O)N/N=C/c3ccc(OCc4ccccc4)cc3)sc2n1 | . | -2.4
O=C(NCCc1ccccc1)c1ccc2ncccc2c1 | . | -2
O=S(=O)(Nc1ccc(-c2cc3cc(F)ccc3[nH]2)cc1)c1cnc[nH]1 | 0.41 | .
Cc1cc2oc3c(c(=O)c2cc1C)C(c1ccc(OCC(N)=O)cc1)N(c1nc(C)c(C)s1)C3=O (stereo unspecified) | -0.24 | -1.2
COc1ccc(CNc2ncnc3scc(-c4ccc(F)cc4)c23)cc1 | 0.62 | .
Cc1c(NS(=O)(=O)c2ccccc2)cccc1-c1nc2ccccc2s1 | 1.8 | 0.92
C=CCn1c(SCC(=O)Nc2ncc3c(n2)CC(c2ccccc2)CC3=O)nnc1-c1ccccc1 (stereo unspecified) | -0.41 | -0.08
Next section:
SMILES | HIV TAR-Tat | CDC25B-CDK2 inh
Cc1cc(C)c(NC(=O)CSc2nc3c(c(=O)n2C)SCC3)c(C)c1 | 0.94 | 1.1
CC(C)CNc1ncnc2c1sc1nc3c(cc12)COC(C)(C)C3 | 1.3 | 0.11
CN(CCCN1CCOCC1)C1CCN(S(=O)(=O)c2ccc3c(c2)CCCC(=O)N3)CC1 | 1.5 | .
Cc1ccc(NS(=O)(=O)c2c(C)nc3sc(C)c(C)n3c2=O)c(Cl)c1 | 0.73 | .
CC(=O)N1c2ccc(S(=O)(=O)NCCc3sccc3C)cc2CC1C (stereo unspecified) | 1.4 | .
COC(=O)c1c(-c2ccco2)n[nH]c1C | . | -0.34
CCOC(=O)c1noc2ncnc(Nc3cc(Cl)c(OC)cc3OC)c12 | 0.73 | .
COc1ccc(Cl)cc1NC(=O)N1CCn2cccc2C1C(C)C (stereo unspecified) | -0.9 | .
CCOC(=O)c1c(C)nc(C)c(C(=O)OCC)c1-c1ccc(O)c(OC)c1 | . | 0.56
Cn1c(=O)c(=O)n(C)c2cc(NS(=O)(=O)c3ccc(Cl)cc3)ccc21 | -0.65 | -0.48
CCOC(=O)c1cnc(SCc2nc(-c3cccs3)oc2C)nc1N | -0.21 | .
Cc1nn2c(=O)cc(COc3cccc(NC(=O)C(C)Oc4ccccc4)c3)nc2s1 (stereo unspecified) | 0.68 | -2.3
Cc1cccc(OCc2ccc(-c3nc(C#N)c(N4CCCC4)o3)o2)c1 | 0.42 | -0.93
CCc1ccc(-c2cc(C)no2)cc1S(=O)(=O)N1CC=C(c2ccccc2)CC1 | 0.43 | .
OC(COc1cccc(C(F)(F)F)c1)CN1CCN(c2nc(-c3ccccc3)ns2)CC1 (stereo unspecified) | . | -0.33
O=C(Nc1cccc(Cl)c1)N1CCN(c2ncc(C(F)(F)F)cc2Cl)CC1 | 0.33 | -0.35
CCn1c(C(=O)N2CCC(C(=O)NCc3cccs3)CC2)cc2sccc21 | . | 0.31
O=C(O)CCSc1nc2ccccc2[nH]1 | 1.3 | 1.5
O=c1[nH]c2ccccc2c(=O)n1CCc1nc(-c2ccncc2)no1 | -0.58 | -2
CC1CN2C(=O)Cc3c(S(=O)(=O)N4CCc5ccccc54)ccc(c32)S1 (stereo unspecified) | 1.6 | .
CCS(=O)(=O)c1nc(S(=O)(=O)c2ccc(C)cc2)c(N2CCC(O)CC2)s1 | 1.3 | 1
CCN1CCN(CCNC(=O)C2CCN(c3nnc(-n4cccc4)s3)CC2)CC1 | 2.2 | .
COC1=C(N)C(=O)c2nc(-c3nc(C(=O)O)c(C)c(-c4ccc(OC)c(OC)c4O)c3N)ccc2C1=O | 0.49 | .
Cc1ccc(C)n1CC1CCNCC1 | . | -0.74
COc1ccccc1C1C(C#N)=C(N)OC2=C1C(=O)CC(c1ccccc1)C2 (stereo unspecified) | . | 0.08

Reprinted at random: 2 compounds from above
SMILES | HIV TAR-Tat | CDC25B-CDK2 inh
CCOC(=O)Cn1c(=O)c2ccsc2c2c(C#N)c(SC)sc21 | . | -1.4
CN1CCN(CCNC(=O)Nc2ccc(F)c(Cl)c2)CC1 | -0.48 | -1.1

Continuation:
SMILES | HIV TAR-Tat | CDC25B-CDK2 inh
Cc1ccc(S(=O)(=O)NC(=O)NCCNC(=O)OC(C)(C)C)cc1 | . | -0.28
CSc1nc(=O)c2c(n1C)NC(=O)CC2c1cc(C)ccc1C (stereo unspecified) | -0.67 | -0.94
O=C1CC(NCCc2c[nH]c3ccc(Cl)cc23)C(=O)N1c1cccc(Cl)c1 (stereo unspecified) | -3.2 | 1.3
O=C(O)CCC(=O)N1CCc2ccccc21 | 0.83 | .
N/C(=N\OC(=O)c1cccs1)C1(c2ccc(Cl)cc2Cl)CC1 | . | -1.9
O=C(NCc1cccnc1)c1ccc(Cl)c(NC2=NC3CS(=O)(=O)CC3S2)c1 (stereo unspecified) | 1.4 | .
CCOC(=O)c1c(C)oc2nc(C)nc(NCc3cccs3)c12 | -2.1 | .
O=S(=O)(CCC1CCCC/C1=N/O)c1ccc(Cl)cc1 (stereo unspecified) | . | -0.85
CCn1c(=O)n(CC)c2cc(N3CCCC3)c(NC(=O)C3CCC(C)CC3)cc21 (stereo unspecified) | -0.06 | -0.12
COc1ccccc1Cn1cc(C(=O)c2ccc(F)cc2)c(=O)c2cc3c(cc21)OCO3 | 3.1 | -1.8

High-throughput results as filed in PubChem BioAssay.

An unsorted share of the library. Share with any hit: about 0.89%.
